Assay outcomes (PubChem)
TRPML1 agonist: qHTS for Agonists of the Human Mucolipin Transient Receptor Potential 1 (TRPML1) | actives 0.12% (n = 410,000) | Mucolipin-1 (Homo sapiens), Q9GZU1 | activation, % (no concentration beside the values) | TRPML1-expressing cells, Ca2+ dye fluorescence, FDSS; host cell line not named in the record; reference of the full effect not given here; in the data active = activation above about 50%; inconclusive = about 30% to 50%; inactive = below about 30%; also: 0% is about no effect; the text of the record puts the active cut at 80%
Target sequence (Q9GZU1 whole entry, looked up): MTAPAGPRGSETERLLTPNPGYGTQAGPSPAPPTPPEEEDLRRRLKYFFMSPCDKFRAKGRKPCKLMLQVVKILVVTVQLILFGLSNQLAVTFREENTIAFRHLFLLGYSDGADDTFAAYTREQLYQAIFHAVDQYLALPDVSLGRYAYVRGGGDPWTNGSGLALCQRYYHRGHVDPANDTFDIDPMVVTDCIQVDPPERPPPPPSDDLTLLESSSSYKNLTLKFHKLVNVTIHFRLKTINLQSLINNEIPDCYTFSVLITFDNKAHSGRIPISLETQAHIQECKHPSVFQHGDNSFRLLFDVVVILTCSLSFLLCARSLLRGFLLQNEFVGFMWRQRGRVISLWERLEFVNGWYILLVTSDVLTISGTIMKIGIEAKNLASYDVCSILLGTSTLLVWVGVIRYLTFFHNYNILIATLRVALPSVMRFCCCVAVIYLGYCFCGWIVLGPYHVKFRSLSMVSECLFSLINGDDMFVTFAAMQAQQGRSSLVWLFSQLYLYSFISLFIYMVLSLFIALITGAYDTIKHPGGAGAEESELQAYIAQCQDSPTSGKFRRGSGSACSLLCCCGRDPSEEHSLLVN
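TRPML1-DL cells, Tet-induced overnight (~16 h, 37 degrees C), loaded 45-90 min at room temperature with Ca8 no-wash calcium dye plus quencher. FDSS fluorescence: 10 s baseline, compound pin-transfer, 110 s agonist read, then EC80 54-4 (4uM final) and 110 s antagonist read.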
TRPML1 blocker: qHTS for Inhibitors of the Human Mucolipin Transient Receptor Potential 1 (TRPML1); Mucolipin-1 (Homo sapiens), Q9GZU1; TRPML1-inducible cells, Ca2+ dye fluorescence, FDSS; active compounds read low; inhibition of EC80 agonist-evoked calcium signal; activity change, negative = inhibition, % (no concentration beside the values); actives 0.02% (n = 390,000); in the data active means activity change below about -50%; inconclusive means about -30% to -50%; inactive means above about -30%;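 also: stimulus is agonist 54-4 at its EC80 concentration; % is scaled to controls: 0 for no effect and ±100 for the full control effect; compound concentration not given in the record; the text of the record puts the active cut at -80%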
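Calcium fluorescence in TRPML1-DL cells induced overnight with Tet: a 110 s read after compound pin addition, then a 110 s antagonist read after challenge with 54-4 at 4 uM final (EC80).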
Six1-Eya2 blk: qHTS Assay for Inhibitors of the Six1/Eya2 Interaction; activity change, % (no concentration beside the values); AlphaScreen GST-Six1/His-Eya2 binding, biochemical; active compounds read low; control for the full effect not named in the record; AID 651725, 2012; Homeobox protein SIX1 (Homo sapiens) + Protein phosphatase EYA2 (Homo sapiens), …; actives 0.56% (n = 360,000); in the data active = activity change below about -65%; inconclusive = about -30% to -65%; inactive = above about -30%; also: % is scaled to controls: 0 for no effect and ±100 for the full control effect
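AlphaScreen luminescence read after one hour at 37 °C in darkness. Pin-transferred compounds met GST-Six1 and His-Eya2 protein (5X stock 250 nM/500 nM) plus glutathione donor and Ni-chelate acceptor beads (5X, 50 ug/mL).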
CtBP-E1A inh: qHTS Assay for Inhibitors of the CtBP/E1A Interaction; actives 0.49% (n = 340,000); AlphaScreen GST-E1A/His-CtBP binding, 1536-well; active compounds read low; control for the full effect not named in the record; activity change, % (concentration not given with the values); in the data active means activity change below about -65%; inconclusive means about -30% to -65%; inactive means above about -30%; also: % is scaled to controls: 0 for no effect and ±100 for the full control effect
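In 5 uL wells, 23 nL compound meets equimolar GST-E1A and His-CtBP (5X stock 125 nM each) for 2 h, 37 °C. Beads (5X, 50 ug/mL) then 1 h, 37 °C, dark.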
D2 agonist: Beta-Arrestin HTS for Positive Allosteric Modulators of the Human D2 Dopamine Receptor: Agonists. D(2) dopamine receptor (Homo sapiens), P14416. DiscoveRx PathHunter D2 beta-arrestin, luminescence, 90 min; 100% = 57 uM dopamine signal. activation, % (test concentration not listed). actives 0.084% (n = 360,000). AID 624465, 2012; in the data active = activation above about 40%; inconclusive = about 15% to 40%; inactive = below about 15%; also: compound concentration not given in the record; the text of the record calls up to 30% inactive
Target sequence (P14416 whole entry, looked up): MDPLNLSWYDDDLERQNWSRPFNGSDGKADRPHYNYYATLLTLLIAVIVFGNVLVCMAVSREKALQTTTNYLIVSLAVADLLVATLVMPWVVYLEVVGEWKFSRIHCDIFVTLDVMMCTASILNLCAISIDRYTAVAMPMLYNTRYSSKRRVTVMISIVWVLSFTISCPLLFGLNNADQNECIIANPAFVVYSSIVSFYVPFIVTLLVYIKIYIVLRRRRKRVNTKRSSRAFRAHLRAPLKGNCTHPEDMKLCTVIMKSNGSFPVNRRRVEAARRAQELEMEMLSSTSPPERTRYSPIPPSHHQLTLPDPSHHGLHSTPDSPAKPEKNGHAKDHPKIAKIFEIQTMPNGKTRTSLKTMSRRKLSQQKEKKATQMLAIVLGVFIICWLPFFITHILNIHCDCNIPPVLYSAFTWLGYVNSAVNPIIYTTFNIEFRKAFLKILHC
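DiscoveRx PathHunter D2 beta-arrestin cells (2,100/well) attached overnight, then compound-stimulated 90 min at 37 C in HBSS/10 mM HEPES/0.1% Tween-20 buffer; beta-galactosidase complementation read by luminescence after 1 h at ambient temperature. Dopamine 57 uM final (EC100) as control.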
PINK1 expr mod: A Quantitative High throughput Screen to Identify Chemical Modulators of PINK1 Expression; PINK1 immunofluorescence, high-content cytometry, 24 h; AID 624263, 2012; Potency, µM (doses to about 76.6 µM), without a hit: top-dose activation (PINK1 increase), usual class: activators; actives 0.2% (n = 410,000); active = well fitted activation curve with a large enough effect; inconclusive = small, poorly fitted or top-dose-only effect; inactive = flat fitted curve, though single readings scatter; cell line not stated here;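 also: potency is read from the fitted curve at half-maximal effect; % of control where 0% means no effect; nearly all actives have a fitted effect of over 65% in size; a mitochondrial uncoupler was the plate control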
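Stable cell line, 250 cells/well, 12 h attachment; compounds pinned at 5 concentrations, 24 h; CCCP control. Fixed with nuclear dye, primary antibodies 12 h at 10 degrees C, secondary plus cell stain; laser-scanning cytometer read.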
The depositor's hits bear a star; ? = inconclusive; . = no result given; & = joins results of further samples; [ ] = dose if it differs, or a comment. This is a random part of the collection (roughly 1% active in at least one column).

SMILES | TRPML1 agonist | TRPML1 blocker | Six1-Eya2 blk | CtBP-E1A inh | D2 agonist | PINK1 expr mod
Cc1ccc(CN2CCNC(=O)C2CC(=O)N(Cc2c(C)nn(C)c2C)C2CC2)o1 (stereo not given) | 1.7 | -3 | -3 | -4 | 0.9 | -2.2%
c1ccc(-n2nnnc2SCc2cn3ccccc3n2)cc1 | 4.2 | -22 | -1 | -2 | -1.8 | -1.4%
CC1(c2ccc(Cl)cc2)NC(=O)N(CC(=O)Nc2ccc3c(c2)OCO3)C1=O (stereo not given) | 6.8 | -3 | -11 | -3 | 1.0 | 2.6%
O=C(NCCc1nc2ccccc2[nH]1)c1ccc(F)cc1 | 1.5 | 7 | -1 | 5 | -4.7 | 2.9%[38.3 µM]
Cc1ccc(COC(=O)c2cccc(S(=O)(=O)N3CCCCC3)c2)cc1 | 1.0 | 31 | 43 | 28 | -7.1 | 3.2%
O=C1[C@H]2[C@H](C=CC[C@H]2C(=O)N2CCN(c3ccccc3)CC2)CCN1Cc1ccc(Cl)c(Cl)c1 | 1.1&-1.1 | 56 | -29 | -7 | -4.0 | 21%
O=C(CN1c2cccc3cccc(c23)S1(=O)=O)Nc1ccccc1F | -1.1 | -2 | 6 | 12 | -2.6 | 3.1%
O=C(CCl)NC1(C(=O)O)CCCC1 | 0.1 | -7 | 4 | 5 | -3.8 | 1.3%
Cc1c(CC(=O)O)c(=O)oc2cc3oc4c(c3cc12)CCCC4 | 0.6 | 23 | 2 | -16 | 3.1 | -1.8%
O=C(Nc1ccccc1)NC1CCCCCCC1 | -0.2 | 5 | -3 | 5 | -2.5 | 0.4%
CCOc1ccccc1C(=O)OCC(=O)NCCc1ccc(OC)cc1 | 0.0 | -4 | 4 | 6 | 2.3 | 0.4%
COc1ccc(C(=O)O)nc1C | 0.1 | -6 | -4 | . | -11 | 1.4%
CCOC(=O)C(NC(=O)c1ccccc1)(OCC1(CC)COC1)C(F)(F)F (stereo not given) | -0.6 | 0 | 2 | 7 | -3.6 | 2.7%
CC(C)[C@H](NC(=O)NC1CCN(Cc2ccccc2)CC1)C(=O)O | -1.0 | 1 | 10 | 5 | 1.8 | 0.1%
COc1ccccc1NS(=O)(=O)c1ccccc1C#N | 0.3 | -5 | 7 | 6 | 0.1 | .
COc1ccc(C(=O)/C=C\N2CCOCC2)cc1 | 0.6 | -6 | 0 | -1 | -1.2 | -0.6%
CCOC1=C/C(=C/c2c(N)n3nc(-c4ccccc4)sc3nc2=O)C=CC1=O | 1.3 | 4 | ? | -9 | -3.7 | -3.6%
CC1CN(C(=O)C2CC(=O)N(c3ccc(Cl)cc3)C2)CC(C)O1 (stereo not given) | 0.1 | -8 | 11 | 4 | -3.0 | 0.5%
Clc1ccc(Cl)c(Oc2ccc(Oc3nc(Cl)ccc3Cl)cc2)n1 | 0.0 | 3 | 4 | 2 | -3.0 | 8.7%[38.3 µM]
O=C(NCCCNC(=O)c1ccc(-c2cc(Cl)ccc2Cl)o1)c1cnccn1 | 0.7 | -18 | -6 | -16 | 0.1 | 1.9%
CN(C(=O)COc1ncnc2ccc(Br)cc12)C1CCCCC1 | 0.2 | -8 | 4 | 2 | -1.9 | 0.6%
COc1ccc(CCn2c(=N)c(C(=O)NCC3CCCO3)cc3c(=O)n4cccc(C)c4nc32)cc1 (stereo not given) | -0.3 | 8 | 0 | 0 | -3.5 | 0.8%
COc1ccc(CNC(=O)CSc2ccsc2[N+](=O)[O-])cc1 | -0.3 | 13 | -9 | 2 | -1.1 | 0.2%
CC(C)CN1C=C2C(=O)C(C)(OC(=O)C3CCCC3)C(=O)C=C2C=C1c1ccsc1 (stereo not given) | 1.2 | -4 | -3 | . | 8.1 | 1.2%
COc1ccc(-c2nc(N)nc(C(F)(F)F)c2-c2cscn2)c(O)c1 | . | . | 4 | 9 | -1.3 | 7.5%

Grouped by structure: those above with an aryl thioether with sulfur outside any ring (2)
SMILES | TRPML1 agonist | TRPML1 blocker | Six1-Eya2 blk | CtBP-E1A inh | D2 agonist | PINK1 expr mod
c1ccc(-n2nnnc2SCc2cn3ccccc3n2)cc1 | 4.2 | -22 | -1 | -2 | -1.8 | -1.4%
COc1ccc(CNC(=O)CSc2ccsc2[N+](=O)[O-])cc1 | -0.3 | 13 | -9 | 2 | -1.1 | 0.2%

The results go on:
SMILES | TRPML1 agonist | TRPML1 blocker | Six1-Eya2 blk | CtBP-E1A inh | D2 agonist | PINK1 expr mod
Cc1cc(N2CCN(C)CC2)nc2ccc(NC(=S)NCCCN3CCc4ccccc4C3)cc12 | -0.6 | 8 | -7 | -12 | -3.1 | -0.8%
Cc1csc(NC(=O)NCC2CCCC(CNC(=O)Nc3nc(C)cs3)C2)n1 (stereo not given) | 1.0 | -9 | -23 | -15 | 0.1 | 2.0%
CCOC(=O)C1CCCN(C(=O)CSc2ccccc2)C1 (stereo not given) | -0.1 | -10 | -1 | -6 | -0.7 | -0.9%
Cc1ccsc1C(=O)OCc1nc2ccsc2c(=O)[nH]1 | 0.4 | 26 | 11 | -2 | -2.2 | 3.6%
O=C(CSc1ccccc1C(=O)O)Nc1cccc(C(=O)O)c1 | -0.8 | 0 | -3 | -7 | -3.8 | 14%[38.3 µM]
Cc1cccc(NC(=O)C2CCCN(S(=O)(=O)c3cccc4nsnc34)C2)n1 (stereo not given) | -1.0 | -8 | 6 | 10 | -1.6 | -0.3%
O=C(c1ccc2c(c1)OCCO2)N(Cc1cccnc1)c1nc2c(Cl)cccc2s1 | 2.7 | 21 | . | . | . | 1.4%
COCC(C)NC(=O)COc1ccc(Cl)cc1Cl (stereo not given) | 0.4 | 2 | 11 | 8 | 0.9 | 1.5%
NC(c1csc(Nc2nncc3ccccc23)n1)C1CCCCC1 (stereo not given) | 0.8 | . | 6 | 1 | 5.3 | -1.2%
CCc1ccc(CN(C)C(=O)C2CCC(=O)N(Cc3ccccn3)C2)cc1 (stereo not given) | -0.3 | -3 | 10 | 8 | -6.7 | -0.8%
Cc1ccc(Cl)cc1Nc1nc(-c2sc(NC(=O)c3ccco3)nc2C)cs1 | -0.2 | 7 | -4 | -6 | -2.3 | 6.8%
O=C(NCc1cccc(C(F)(F)F)c1)c1cc(-c2ccccc2)nn1CC1CC(c2cccnc2)=NO1 (stereo not given) | -0.2 | -23 | 5 | 0 | 0.8 | -0.2%
O=C1CC(c2ccccc2)n2nc(NC(=O)c3cccs3)nc2N1 (stereo not given) | 1.0 | -6 | -9 | -8 | -2.4 | 0.6%
O=C(Nc1cccc(Cl)c1)c1cnc2sc(N3CCCC3)nn2c1=O | 0.3 | -5 | . | . | . | 4.1%
O=C(O)COc1ccccc1/C=N/NC(=O)CSc1nc2ccccc2n1Cc1ccccc1Cl | 0.0 | 25 | -12 | 2 | -1.0 | -1.9%
COc1ccc(/C=C2\Cc3ccccc3C2=O)cc1OC | 3.7 | 10 | 4 | . | -4.9 | -0.4%
Cc1ccc(NC2CCCN(C(=O)c3ccc(F)cc3)C2)cc1C (stereo not given) | 0.9 | 16 | -7 | -22 | 5.2 | -0.4%
COc1cccc(C(=O)Nc2ccc(NC(=O)C3CC3)cn2)c1 | 0.1 | 12 | -5 | -5 | 1.5 | -1.6%
O=C(c1cccs1)N1CCN(c2nnc(-c3ccccc3)c3ccccc23)CC1 | 0.5 | 0 | -7 | -4 | -2.1 | 0.8%
OC(c1ccc(Cl)cc1)C(CN1CCOCC1)c1ccccc1 (stereo not given) | 0.1 | 5 | -1 | 1 | -7.7 | 5.9%
COc1ccccc1C1C(C#N)=C(N)Oc2c1oc(CO)cc2=O (stereo not given) | -0.2 | 6 | 2 | 8 | -0.8 | -0.7%
COc1cccc(-n2cnc3sc(C)cc3c2=O)c1 | 0.4 | 2 | 7 | 7 | -2.9 | -0.5%
COc1cccc(C(=O)N(Cc2nc(-c3ccc(Cl)cc3)no2)C(C)C)c1OC | 0.1 | 18 | . | . | . | 4.8%
O=C(COC(=O)[C@H](Cc1ccccc1)NC(=O)c1ccco1)NCc1ccccc1 | 3.7 | 2 | -1 | -4 | 3.5 | .
Cc1nnsc1S(=O)c1ccc(Br)cc1 (stereo not given) | . | . | -28 | 0 | -8.4 | 0.8%

Single entries from the results shown:
Result for `COc1ccc(/C=C2\Cc3ccccc3C2=O)cc1OC` in Six1-Eya2 blk: 4
Result for `Cc1nnsc1S(=O)c1ccc(Br)cc1` (stereo not given) in PINK1 expr mod: 0.8%

Remaining list, next part.
SMILES | TRPML1 agonist | TRPML1 blocker | Six1-Eya2 blk | CtBP-E1A inh | D2 agonist | PINK1 expr mod
O=C(CCNC(=O)c1ccc(Cl)cc1)NN1C(=O)NC2(CCCCC2)C1=O | 0.3 | 9 | 5 | 0 | -3.9 | -0.5%
O=C(CCn1c(=O)sc2ccccc21)Nc1nccs1 | -0.3 | 6 | 0 | -1 | -1.7 | -1.5%
O=C(COC(=O)[C@@H]1CCCN1S(=O)(=O)c1ccc(Cl)cc1)NC1CC1 | -0.6 | -1 | 1 | 2 | 0.5 | 3.4%
COc1ccc(CN2CCCCC2C(=O)Nc2ccc(OC)c(OC)c2)cc1OC (stereo not given) | 0.6 | -4 | 2 | 8 | 1.0 | .
C[C@H](NC(=O)c1nc[nH]c1C(=O)N[C@@H](CCCCNC(=O)OC(C)(C)C)C(=O)OC(C)(C)C)C(=O)OCc1ccccc1 | 2.3 | 1 | -3 | 0 | -2.3 | 3.7%
CC(C)n1c(CNC(=O)c2ccccc2)nc2ccccc21 | 0.5 | 28 | -4 | 5 | -0.9 | -1.8%
Cc1ccc(C2N(c3cccc(Cl)c3)C(=O)C3CCCN32)o1 (stereo not given) | -0.3 | -1 | 0 | 5 | -3.6 | -0.1%
CNC(=O)c1[nH]cnc1C(=O)NCC(=O)OC(C)(C)C | 0.3 | 12 | 1 | 3 | -3.6 | 0.8%
CCCCNC(=O)CCC(=O)Nc1ccc2nc(N3CCCCC3)cc(C)c2c1 | . | . | 8 | 3 | -3.2 | 2.0%

Three of the entries above in order of their number in TRPML1 blocker, largest number first.
structure	TRPML1 blocker
O=C(CCNC(=O)c1ccc(Cl)cc1)NN1C(=O)NC2(CCCCC2)C1=O	9
O=C(CCn1c(=O)sc2ccccc21)Nc1nccs1	6
COc1ccc(CN2CCCCC2C(=O)Nc2ccc(OC)c(OC)c2)cc1OC (stereo not given)	-4

2 records picked at random from those above, as already listed:
SMILES | TRPML1 agonist | TRPML1 blocker | Six1-Eya2 blk | CtBP-E1A inh | D2 agonist | PINK1 expr mod
O=C(COC(=O)[C@@H]1CCCN1S(=O)(=O)c1ccc(Cl)cc1)NC1CC1 | -0.6 | -1 | 1 | 2 | 0.5 | 3.4%
Cc1ccc(C2N(c3cccc(Cl)c3)C(=O)C3CCCN32)o1 (stereo not given) | -0.3 | -1 | 0 | 5 | -3.6 | -0.1%
